AID504770 – growth inhibition of E. coli YBA685, primary screen, V. cholerae RctB inhibitors | E. coli YBA685 rctB-dependent plasmid, OD600 growth, 3 h; active compounds read low | z-score (test concentration not listed) | 130,000 compounds, 0.27% hits | AID 504770, 2011;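 active = z-score under -2 on both plates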;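 note: wells of about 30 µL received 100 nL stock; score is relative to mean and SD of the test wells; the first replicate is given; strong numbers were not always called active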
CapD inh – Bacillus anthracis CapD inhibitors, primary screen, biochemical, fluorescence intensity; CapD gamma-glutamyltranspeptidase (Bacillus anthracis Ames Ancestor); purified CapD enzyme, fluorescence intensity read-out; active compounds read low; some hits fall short of the stated cut; z-score (concentration not given with the values); 140,000 compounds, 0.23% hits; AID 492967, 2010;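 active = z-score under -4 in either of two replicates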;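 note: stock transfer was 100 nL into about 40 µL; score is relative to mean and spread of the plate; one replicate is shown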
An asterisk follows results filed as active; nt = no result given.

SMILES	AID504770	CapD inh
O=C(CN1CCC(n2nnc3ccccc32)CC1)Nc1ccccc1Cl	0.65	nt
Cc1ccc(C(=O)Nc2cc(C)cc(C)c2)cc1	1.1	1
CCOC(=O)c1cc2cccc(NS(=O)(=O)c3ccc(Cl)cc3)c2[nH]1	nt	-0.56
C=CCSc1nc2ccccc2c(=O)n1CC(=C)C	-0.45	0.39
Cc1nccc(-c2cccc(NS(=O)(=O)c3ccccc3C(F)(F)F)c2)n1	-0.3	-0.09
COc1ccc(NC(=O)CN(c2ccccc2)S(=O)(=O)c2ccccc2)cc1	nt	-0.34
Cc1cccc(-c2nnc3sc(NC(=O)COc4ccccc4F)nn23)c1	1.6	-1.1
FC(F)(F)c1nnc2n1N=C(c1cc3ccccc3o1)CS2	-0.4	nt
COc1ccccc1/C=C1\N=C(c2ccco2)OC1=O	0	0.2
CCOCCCn1c(SCC(=O)/C(C#N)=C(\C)N)nc2ccccc2c1=O	1.4	nt
O=C(CSc1nnc2n1CCCCC2)N(Cc1cccs1)c1ccc2c(c1)OCCO2	-0.4	nt
O=C(c1ccccc1)C(Sc1ncn[nH]1)c1ccccc1 (stereo not drawn)	-0.5	-0.21
O=C(c1ccccc1)N1CCC2(CC1)OCCO2	-0.4	-1.1
COc1ccc(NCc2cc3cccc4c3n(c2=O)CCC4)cc1	nt	-0.81
CC1C(=O)OC2C1CCC1(C)CCC(=O)C(C)C21 (stereo not drawn)	-0.7	0.14
COc1cccc(CCOC(=O)Nc2cc(C(C)(C)C)ccc2O)c1	nt	0.095
COc1cc(C(=O)NNC(=O)OCCN2CCN(Cc3cc4ccccc4o3)CC2)ccc1O	nt	-0.91
O=C1OCCC1n1nnc(-c2ccc(F)cc2)n1 (stereo not drawn)	0.1	nt
CN1/C(=C/C(=O)C2CCC2)C(C)(C)c2ccccc21	1.1	nt
O=C(Cn1cccc1C(=O)c1ccccc1)NCCCN1CCc2ccccc2C1	-0.1	-0.02
Cc1noc(C)c1CSc1nc(N)c(-c2nc(-c3ccccc3)cs2)cc1C#N	0.15	nt
COc1ccc(CNC(=O)Cn2cnc3ccccc32)cc1OC	-0.3	nt
CCOC(=O)C(C)ON1C(=O)c2ccccc2C1=O (stereo not drawn)	0.6	nt
Cc1ccc(NC(=O)CN(C)C(=O)Cc2ccccc2F)cc1	0.45	nt
COc1ccc(C2(Cc3nc4ccccc4[nH]3)C(=O)c3ccccc3C2=O)cc1	-0.95	22

Five entries from above, arranged by molecular weight, ascending:
SMILES	AID504770	CapD inh
CC1C(=O)OC2C1CCC1(C)CCC(=O)C(C)C21 (stereo not drawn)	-0.7	0.14
FC(F)(F)c1nnc2n1N=C(c1cc3ccccc3o1)CS2	-0.4	nt
Cc1nccc(-c2cccc(NS(=O)(=O)c3ccccc3C(F)(F)F)c2)n1	-0.3	-0.09
Cc1noc(C)c1CSc1nc(N)c(-c2nc(-c3ccccc3)cs2)cc1C#N	0.15	nt
COc1cc(C(=O)NNC(=O)OCCN2CCN(Cc3cc4ccccc4o3)CC2)ccc1O	nt	-0.91

New compounds follow:
SMILES	AID504770	CapD inh
CC(C)(C)C1=CC=Nn2cnnc2S1	-0.75	-0.03
CCCC1C(C#N)=C(N)Oc2n[nH]c(CC(=O)OCC)c21 (stereo not drawn)	0.3	0.39
COc1ccc(CN2CCN(C(=O)Cn3c(=O)c4cccn4c4cccnc43)CC2)c(OC)c1OC	-0.35	7.5
COc1ccc(-c2csc(-c3cc4cc(Cl)ccc4oc3=O)n2)cc1	nt	-0.36
O=C(CSc1nccn1-c1ccc(F)cc1)Nc1ccccc1	-1.1	nt
O=c1oc2c(Cl)cc(Cl)cc2cc1-c1nnc(Nc2ccc(F)cc2)s1	nt	0.04
O=C(CSc1ncccn1)Nc1nccs1	-1	0.27
NC(=O)C1CCN(C(=O)CCC(=O)N2CCOc3ccc(Cl)cc32)CC1	-0.95	0.29
COc1ccccc1NC(=O)C1CC(=O)N(CCc2ccc(OC)c(OC)c2)C(=Nc2ccccc2)S1 (stereo not drawn)	nt	0.045
Cc1nc(-c2ccc3c(c2)CCO3)sc1C(=O)NC1CCS(=O)(=O)C1 (stereo not drawn)	-0.15	120
COc1ccc(CN(C)C(=O)CSc2nc(C)cs2)cc1OC	-1.9	nt
CS(=O)(=O)Nc1ccc2c(c1)nc1n2CCN(Cc2ccccc2)C1	-0.8	-0.085
CCOC(=O)c1ccc(-c2coc3cc(OC(C)=O)c(CC)cc3c2=O)o1	-0.3	0.4
Cc1nn(Cc2ccccc2)c(Cl)c1C(=O)OCC(=O)N(C)C1CCS(=O)(=O)C1 (stereo not drawn)	-1.2	nt
O=P(O)(CN1CCCCC1)C1CCCCC1O (stereo not drawn)	0.2	0.41
CC(Sc1nnc2c(Cl)cc(Cl)cn12)c1nnc(-c2cccs2)o1 (stereo not drawn)	0.05	nt
Cc1ccc(S(=O)(=O)N2CCN(C(c3ccc(Cl)cc3)c3ccc(Cl)cc3)CC2)cc1Cl	nt	0.03
COc1ccc(C2C(C(=O)OCCc3ccccc3)=C(C)NC3=C2C(=O)CC(c2cccs2)C3)cc1OC (stereo not drawn)	nt	2.1
N#Cc1cn(-c2ccccc2Cl)c(=O)[nH]c1=O	nt	0.22
COCCn1c(N)c(-c2nc3ccccc3[nH]2)c(O)c1N=Nc1ccc(F)c(F)c1	-1.4	nt
CN1C(=O)C(=Cc2cccn2C(C)(C)C)C(=O)N(C)C1=S	-0.25	0.2
COc1ccc(CN(C)Cc2nc3cc(Cl)ccc3c(=O)[nH]2)c(OC)c1	-0.5	nt
O=C(N/N=C/c1ccc(C(F)(F)F)cc1F)c1ccccc1OC(F)(F)F	nt	-0.1
NNC(=O)CCN1CCCCC1	-0.25	-0.095
CCOc1ccc(C2Nc3ccccc3C(C)(C)O2)cc1OC (stereo not drawn)	0.2	0.64

Fetched by structure from the entries so far (five):
SMILES	AID504770	CapD inh
CCOc1ccc(C2Nc3ccccc3C(C)(C)O2)cc1OC (stereo not drawn)	0.2	0.64
Cc1nccc(-c2cccc(NS(=O)(=O)c3ccccc3C(F)(F)F)c2)n1	-0.3	-0.09
COc1ccc(C2(Cc3nc4ccccc4[nH]3)C(=O)c3ccccc3C2=O)cc1	-0.95	22
COc1ccc(CNC(=O)Cn2cnc3ccccc32)cc1OC	-0.3	nt
COc1ccccc1/C=C1\N=C(c2ccco2)OC1=O	0	0.2

More compounds follow:
SMILES	AID504770	CapD inh
Cc1ccccc1Cn1c(=O)n(CC2CCC(C(=O)NCc3ccccc3)CC2)c(=O)c2ccccc21 (stereo not drawn)	-0.75	-0.07
O=C(CSc1c(-c2ccccc2)c2cc(Cl)ccc2[nH]c1=O)NC1CCCC1	-0.25	0.77
COc1ccc(S(=O)(=O)N2CCN(S(=O)(=O)c3ccccc3)CC2)cc1	0.6	nt
O=C(Nc1cccc2c1C(=O)c1ccccc1C2=O)c1ccc(S(=O)(=O)N2CCc3ccccc32)cc1	nt	-0.18
Cc1cc(=O)oc(C)c1C(=O)OCC(=O)c1ccccc1	-0.1	-0.45
CC1CCCN(C(=O)C(C)OC(=O)c2c3c(nc4ccccc24)CCN(C)C3)C1 (stereo not drawn)	2.2	nt
CSc1nc(C)cc(OCC(=O)NCCOc2ccc(C)cc2)n1	-1.2	0.085
CC(C)NC(=O)CCc1nc(-c2ccc(Cl)cc2)no1	-0.45	-1
CC(=O)c1cc(F)cc(Cl)c1OC(=O)c1c(-c2c(Cl)cccc2Cl)noc1C	nt	-0.01
Cc1cc(OCc2nnc3n2CCCCC3)ccc1Cl	-0.15	0.12
CCCCC#CCCOC(=O)NC(C)C(=O)OCc1ccc([N+](=O)[O-])cc1 (stereo not drawn)	nt	-0.085
CN(C)C(=O)COC(=O)c1ccccc1NCCO	-0.65	nt
CC(CC(=O)c1ccccc1)CC(=O)c1ccccc1	-0.55	-0.18
COCC(C)NCc1cc(C)c(OC)cc1C (stereo not drawn)	1.4	-0.86
CSc1cccc(C(=O)Nc2sccc2C#N)c1	-1	nt
CCC(Sc1nnc(C)s1)C(=O)Nc1nccs1 (stereo not drawn)	1.4	-0.48
O=S(=O)(c1ccc(-c2ccc(S(=O)(=O)N(CCO)CCO)cc2)cc1)N(CCO)CCO	-1	0.09
CC(=O)Nc1nnc(CC(=O)N/N=C/c2ccc(Cl)cc2)s1	-0.5	0.68
O=S(=O)(Nc1ccc(S(=O)(=O)N(C2CC2)C2CCN(Cc3ccccc3)CC2)cc1)c1ccccc1	nt	-0.49
COc1ccc(NC(=O)C2CC(=O)NC(=Nc3ccccc3)S2)cc1 (stereo not drawn)	0.2	-0.08
COc1cc2c(cc1OC)C(/C(C#N)=N\O)=NC(C)(C)C2	0.2	-1.8
CCOc1ccc(CCCC(=O)O)cc1	nt	-0.45
O=C(Nc1cccnc1)c1ccc2cccnc2n1	nt	0.015
CCOC(=O)C1CCN(CN2C(=O)C(=Nc3ccc(C)c(C)c3)c3ccccc32)CC1	-0.1	-0.065
OC1(C(F)(F)F)CC(c2ccc3c(c2)Nc2ccccc2S3)=NN1 (stereo not drawn)	-0.65	-0.7

Record cards, as listed above.
`COc1ccc(CN2CCN(C(=O)Cn3c(=O)c4cccn4c4cccnc43)CC2)c(OC)c1OC` reads AID504770: -0.35; CapD inh: 7.5
`O=C(Cn1cccc1C(=O)c1ccccc1)NCCCN1CCc2ccccc2C1` reads AID504770: -0.1; CapD inh: -0.02

Other records
SMILES	AID504770	CapD inh
CCC1CSC(Nc2ccccc2C(F)(F)F)=N1 (stereo not drawn)	0.05	nt
COc1ccc(/C=C2\CSc3ccccc3C2=O)cc1	0.9	-2.3
CN(/N=C(\C#N)C(=O)C1CC1)c1ccc(Cl)cc1	0.7	-1.8
CCOC(=O)C1=C(C)NC(=O)NC1c1cn(-c2ccccc2)nc1-c1ccc(OC)c(Cl)c1 (stereo not drawn)	nt	-0.26
Cc1noc(N)c1-c1nc(-c2ccc(Cl)cc2Cl)cs1	2	0.77
CCOC(=O)N1CC=C2C(C#N)=C(N)C(C#N)(C#N)C(c3cccc(Cl)c3)C2C1 (stereo not drawn)	nt	1.2
COC(=O)c1c(F)c(F)c(F)c(F)c1C(=O)OC	-0.4	-0.06
O=S(=O)(c1cccc(-c2nc3ccccc3s2)c1)N1CCCC1	0.35	-0.33
CN(Cc1ccccc1)C(=O)C1c2ccccc2C(=O)N(C)C1c1cccs1 (stereo not drawn)	0.5	-0.19
CCn1cc(C(=O)NN)c(=O)c2cc(F)c(NC3CCCCC3)cc21	0.75	0.71
Cc1ccc(S(=O)(=O)c2cnc(-c3ccccn3)nc2-c2ccncc2)cc1	nt	-0.15
CCOc1nc2cccnc2n(Cc2cccc(Cl)c2)c1=O	-1	25
COc1cccc2c1OC[C@@H](CO)[C@H]2N(C)C(=O)Nc1ccc(Cl)cc1	nt	-0.62
O=C(N/C=C/c1ccsc1)Sc1ccc(Cl)cc1	-1.7	0.65
CCOC(=O)c1cc(CO)cc(C(=O)OCC)c1	0	-0.3
O=C(COC(=O)c1cc2ccccc2[nH]1)c1ccccc1	0.4	nt
CC(C)(C)c1nnc2n1N=C(c1ccc(Br)cc1)CS2	-0.55	-0.015
O=C(Nc1ccc(N2CCCCC2)cc1)c1ccc(=O)oc1	2	nt
C=CCNC(=O)c1ccc(S(=O)(=O)N(CC)c2ccccc2)cc1	0.6	nt
CC(C)CNc1ncnc2c1cnn2-c1ccccc1	-0.35	1.4
N#Cc1c(F)cccc1NC(=O)c1ccc(Cl)cc1Cl	nt	0.57
COc1ccc(C(=O)NCc2cn3ccccc3n2)cc1	0.5	nt
CC1CCc2c(sc(NC(=O)CCN3C(=O)c4ccccc4C3=O)c2C(N)=O)C1 (stereo not drawn)	nt	-0.29
CC(C)OC(=O)c1cccc2c1C(=O)c1ccccc1-2	-0.65	-0.41
CCOC(=O)c1[nH]c(C)c(C(=O)N(CC)CC)c1C	-0.25	-0.83

New compounds follow.
SMILES	AID504770	CapD inh
CCCC(CCC)C(=O)N1CCN(c2ccc(NCc3ccccc3)nn2)CC1	-1	nt
Fc1ccc(Cc2nnc(Cc3ccccc3)o2)cc1	-0.4	-0.1
Cc1noc(C)c1C(=O)N1CCCSc2ccccc21	-0.2	nt
CCOC(=O)CC1=CC(C)(CC(=O)OCC)C(C#N)(C#N)C(N)=C1C#N (stereo not drawn)	-0.85	-0.54
O=C(c1ccc(C(=O)N2CCCCC2)cc1)N1CCCCC1	0.45	0.53
O=C1Nc2cc(C(F)(F)F)ccc2N2CCCC12 (stereo not drawn)	-0.15	-0.26
CCCn1c(N)c(C(=O)CN2CCCc3ccccc32)c(=O)[nH]c1=O	-0.6	nt
CCSCCSc1nc(-c2cccs2)cc(-c2ccccc2)c1C#N	nt	35
Cc1ccc(-c2csc(C3=C(O)CN(N)C3=N)n2)cc1	-1.2	nt
Nc1cccc2c1C(=O)N(C(=O)/C=C/c1cccc(F)c1)C2=O	0.3	nt
O=C(Oc1ccc(OC(=O)C2CCCCC2)c(Cl)c1)C1CCCCC1	0.65	0.3
NC(=O)CCOC1CCN(C(c2ccccc2)c2ccccc2)CC1	-0.45	-0.29
Nc1c(C(=O)N2CCCC2)nnn1-c1ccc(F)cc1	-0.8	nt
O=C(Nc1ccc(F)c(Cl)c1)c1ccc(N2C(=O)CCC2=O)cc1	2.3	nt
CC1(C)CC(=O)C2=C(C1)c1c(ccc3ccccc13)NC2c1cn(Cc2c(F)cccc2Cl)c2ccccc12 (stereo not drawn)	nt	1.5
CC1=C(n2nnc([N+](=O)[O-])n2)C(c2ccccc2[N+](=O)[O-])C(C#N)=C(N)O1 (stereo not drawn)	nt	27
CCCCCCc1ccc(C(=O)NC2CCN(Cc3cccc(OC)c3[N+](=O)[O-])C2)cc1 (stereo not drawn)	nt	-0.21
CSc1nc2ccc(NS(=O)(=O)c3ccc([N+](=O)[O-])cc3)cc2s1	nt	-0.65
Cc1nc2c3ccccc3n3c(CCCC(=O)N4CCOCC4)nnc3n2n1	0.35	-0.12
COc1ccc(C2CC(=O)NC(SCC(=O)Nc3cc(Cl)cc(Cl)c3)=C2C#N)cc1OC (stereo not drawn)	nt	0.12

Source: PubChem BioAssay

No enrichment for hits; about 0.41% have a hit in one of these screens.
